High-throughput results as filed in PubChem.
CBX7 AlphaScr – inhibitors of human CBX7 binding to H3K27me3 peptide; AlphaScreen His6-CBX7 / biotin-H3K27me3 peptide binding; hits give low values; normalised signal (fraction of DMSO) (concentration not given with the values); 66,000 compounds, 1.1% hits; AID 1224903; in the data active = normalised signal below about 0.5;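 also: 100 nL library stock added to about 20 µL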
Target sequence (O95931 whole entry, looked up): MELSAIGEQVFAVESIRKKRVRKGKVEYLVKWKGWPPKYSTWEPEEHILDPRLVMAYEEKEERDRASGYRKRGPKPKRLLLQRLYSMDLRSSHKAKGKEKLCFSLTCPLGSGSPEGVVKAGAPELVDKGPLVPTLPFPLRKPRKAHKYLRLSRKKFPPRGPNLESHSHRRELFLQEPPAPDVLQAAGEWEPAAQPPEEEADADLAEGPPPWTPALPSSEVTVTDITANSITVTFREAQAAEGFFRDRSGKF
CBX7 AlphaScr z-score – second read-out of CBX7 AlphaScr, no call of its own (marks repeat the call); z-score; measured here: z-score of CBX7 signal; some inactives read as strong as hits; reference of the scale not given here;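 same signal on another scale; lower means less binding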
Numbers without * were called inactive; & = joins results of further samples.

1: O=C(Nc1ccc(Cl)cc1C(=O)c1ccccc1)c1ccc(F)c(F)c1
2: CCCCCCCC(=O)N1c2ccc(C)cc2[C@@H]2CN(C)CC[C@@H]21
3: CC1(C)CC(=O)c2cc(OCC(=O)N3CCN(Cc4ccccc4)CC3)ccc2O1
4: CCOc1cc2c(cc1OCC)-n1cccc1C(c1ccc(OC)cc1)NC2 (centres undefined)
5: Cc1ccc(-n2c(/C=C/c3cccnc3)nc3ccccc3c2=O)cc1C
6: CCOc1cc2c(cc1OCC)-n1cccc1C(c1ccc(F)cc1)NC2 (centres undefined)
7: CN(C)c1ccc(/C=C/c2nc3ccccc3c(=O)n2-c2ccc(Br)cc2)cc1
8: O=C(c1ccc2c(c1)ncn2C1CCCCCC1)N1CCC2(CC1)OCCO2
screen / no.	1	2	3	4	5	6	7	8
CBX7 AlphaScr	0.897	1.02	0.967	0.711	1.02	0.802	0.915	0.99
CBX7 AlphaScr z-score	-2.19	0.689	-0.481	-5.63	0.3	-4.33	-3.85	-0.108

Among those listed so far, five have nitrogen in an aromatic ring.
4: CCOc1cc2c(cc1OCC)-n1cccc1C(c1ccc(OC)cc1)NC2 (centres undefined)
5: Cc1ccc(-n2c(/C=C/c3cccnc3)nc3ccccc3c2=O)cc1C
6: CCOc1cc2c(cc1OCC)-n1cccc1C(c1ccc(F)cc1)NC2 (centres undefined)
7: CN(C)c1ccc(/C=C/c2nc3ccccc3c(=O)n2-c2ccc(Br)cc2)cc1
8: O=C(c1ccc2c(c1)ncn2C1CCCCCC1)N1CCC2(CC1)OCCO2
screen / no.	4	5	6	7	8
CBX7 AlphaScr	0.711	1.02	0.802	0.915	0.99
CBX7 AlphaScr z-score	-5.63	0.3	-4.33	-3.85	-0.108

Later entries
9: Cc1ccc(NC(=O)CN2CC(c3ccccc3)CC2=O)cc1Cl (centres undefined)
10: Cc1nc2n(CCN3CCOCC3)c3ccccc3n2c1C(=O)c1cccs1
11: O=C1C2CCN(CC2)C1Cc1ccc2c(c1)OCO2 (centres undefined)
12: Cc1cccc(-n2c(/C=C/c3ccccc3O)nc3ccccc3c2=O)c1
13: COc1ccc2c(c1)c(C(=O)N1CCN(C)CC1)c(C)n2C
14: O=C(CN1C(=O)CN=C(c2ccccc2Cl)c2cc(Cl)ccc21)NCCCN1CCOCC1
15: Clc1cccc(-n2nnnc2C2(N3CCOCC3)CCCCC2)c1
16: Cc1ccc(NC(=O)CN2C(=O)CN=C(c3ccccc3)c3ccccc32)cc1Cl
screen / no.	9	10	11	12	13	14	15	16
CBX7 AlphaScr	1.07	1.1	0.901	0.956	1.05	0.928	0.998	0.967
CBX7 AlphaScr z-score	2.53	0.613	-1.17	-1.07	1.53	-1.16	-0.0239	-0.906

4 entries picked at random from those above:
12: Cc1cccc(-n2c(/C=C/c3ccccc3O)nc3ccccc3c2=O)c1
13: COc1ccc2c(c1)c(C(=O)N1CCN(C)CC1)c(C)n2C
9: Cc1ccc(NC(=O)CN2CC(c3ccccc3)CC2=O)cc1Cl (centres undefined)
10: Cc1nc2n(CCN3CCOCC3)c3ccccc3n2c1C(=O)c1cccs1
screen / no.	12	13	9	10
CBX7 AlphaScr	0.956	1.05	1.07	1.1
CBX7 AlphaScr z-score	-1.07	1.53	2.53	0.613

4 entries out of the list, sorted by SMILES length, lowest first.
9: Cc1ccc(NC(=O)CN2CC(c3ccccc3)CC2=O)cc1Cl (centres undefined)
10: Cc1nc2n(CCN3CCOCC3)c3ccccc3n2c1C(=O)c1cccs1
8: O=C(c1ccc2c(c1)ncn2C1CCCCCC1)N1CCC2(CC1)OCCO2
3: CC1(C)CC(=O)c2cc(OCC(=O)N3CCN(Cc4ccccc4)CC3)ccc2O1
screen / no.	9	10	8	3
CBX7 AlphaScr	1.07	1.1	0.99	0.967
CBX7 AlphaScr z-score	2.53	0.613	-0.108	-0.481

Remaining list, next part:
17: CSc1ccc(CN2CCN(Cc3cccc(Cl)c3)CC2)cc1
18: COc1ccc(OC)c(C2=NCC(=O)Nc3c2oc2ccccc32)c1
19: O=c1c2ccccc2nc(/C=C\c2ccc(F)cc2)n1-c1cccc(F)c1
20: Cc1ccc(-n2c(C)nc3ccccc3c2=O)cc1
21: Fc1ccccc1C1CC(c2cccnc2)Nc2ncnn21 (centres undefined)
22: COc1cc2c3c(c1OC)-c1cc(O)ccc1CC3NCC2 (centres undefined)
23: CCc1ccccc1NC(=O)CN1C(=O)CN=C(c2ccccc2)c2cc(Br)ccc21
24: O=C1CCCC2=C1C(c1cccnc1)Nc1ccccc1N2 (centres undefined)
screen / no.	17	18	19	20	21	22	23	24
CBX7 AlphaScr	0.788	0.909	1.01	0.82	1.01	1.04	0.916	1.1
CBX7 AlphaScr z-score	-2.54	-1.41	0.214	-1.96	0.41	1.61	-1.35	1.06

25: COc1ccc(-n2c(/C=C/c3cccc(F)c3)nc3ccccc3c2=O)cc1
26: CCN1CCN(C(=O)Cc2c(C(=O)O)[nH]c3ccc(Cl)cc23)CC1
27: O=C(CN1C(=O)CN=C(c2ccccc2)c2cc(Cl)ccc21)Nc1ccc(F)c(Cl)c1
28: CCOC(=O)C1(c2ccccc2)CCN(CC(=O)Nc2cccc(Br)c2)CC1
29: Cc1ccc(OCC(=O)Nc2ccc(Cl)cc2C(=O)c2ccccc2)c(Br)c1
30: COc1cccc(-n2c(/C=C/c3ccccc3Cl)nc3ccccc3c2=O)c1
31: CC1N=C(c2ccccc2)c2cc(Cl)ccc2N(CC(=O)NCC2CCCO2)C1=O (centres undefined)
32: COc1cccc(-n2c(/C=C/c3ccc(O)cc3)nc3ccccc3c2=O)c1
screen / no.	25	26	27	28	29	30	31	32
CBX7 AlphaScr	0.978	1.12	0.893	0.83	0.985	1.12	0.852	1.02
CBX7 AlphaScr z-score	-1.12	1.17	-2.2	-0.601	-0.415	0.408	-2.12	0.525

33: c1ccc(CNc2c3c(nc4ccccc24)CCC3)cc1
34: CCC(=O)OC1(c2ccccc2)CCN(C)CC1CC (centres undefined)
35: CC1N=C(c2ccccc2F)c2cc(Cl)ccc2N(CC(=O)N(C)c2ccccc2)C1=O (centres undefined)
36: Cc1cccc(N2CCc3c2nc2ccccc2c3N)c1
37: O=C(c1cnn(-c2ccccc2)c1-n1cccc1)N1CCCC(C(=O)N2CCC3(CC2)OCCO3)C1 (centres undefined)
38: CCC1C(c2ccccc2)NC(c2ccccc2)CC1(O)c1ccc(F)cc1 (centres undefined)
39: COc1ccc(-n2c(-c3ccccc3F)nc3ccccc3c2=O)cc1
40: FC(F)(F)COc1ccc(N2CCNCC2)nn1
screen / no.	33	34	35	36	37	38	39	40
CBX7 AlphaScr	0.93	1.11	1.11	0.888	1.21	0.967	1.01	1.09
CBX7 AlphaScr z-score	-2.05	1.77	1.84	-3.3	1.6	-0.93	0.385	1.43

41: O=C(CN1CC(c2ccccc2)CC1=O)Nc1cccc(Cl)c1 (centres undefined)
42: Cc1oc(-c2ccccc2F)nc1CN1C(=O)C(C)N=C(c2ccccc2F)c2cc(Cl)ccc21 (centres undefined)
43: Cc1cccc(NC(=O)c2c(O)c3ccccc3n(Cc3ccccc3)c2=O)n1
44: COc1ccccc1NC(=O)CN1C(=O)C(C)N=C(c2ccccc2)c2ccccc21 (centres undefined)
45: CCc1ccc(NC(=O)CN2C(=O)CN=C(c3ccccc3)c3ccccc32)cc1
46: Cc1c(C(=O)N2CCC3(CC2)OCCO3)oc2ccc(S(=O)(=O)N3CC(C)CC(C)C3)cc12 (centres undefined)
47: Cc1ccc(NC(=O)CN2C(=O)C(C)N=C(c3ccccc3)c3ccccc32)cc1F (centres undefined)
48: CC1(C)Cc2c(C#N)c(N3CCNCC3)nc(Cc3ccccc3)c2CO1
screen / no.	41	42	43	44	45	46	47	48
CBX7 AlphaScr	0.895	1.05	1.08	0.987	1.13	1.09	0.856	0.93
CBX7 AlphaScr z-score	-2.43	1.1	0.483	-0.505	0.984	0.922	-3.74	-0.833

49: CCc1nc2ccccc2c(=O)n1-c1ccc(C)cc1
50: O=c1c2ccccc2nc(-c2ccco2)n1-c1ccncc1
51: CCOC(=O)c1c(C)n(Cc2ccccc2)c2ccc(OCC(O)CNCc3ccccc3)cc12 (centres undefined)
52: COc1ccc(CC2NCCc3cc(OC)c(OC)cc32)cc1OC (centres undefined)
53: CCN1C[C@]2(C)CC[C@H](OC)[C@]34C2[C@H](OC(C)=O)[C@@]2(OCO[C@@]25C[C@H](OC)[C@H]2C[C@]3(O)C5[C@H]2OC)[C@@H]14
54: O=C1CN=C(c2ccccc2Br)c2cc(Cl)ccc2N1
55: Cc1ccc2c(c1)[C@@H]1CN(C)CC[C@@H]1N2C(=O)c1ccccc1
56: O=c1c2ccccc2nc(/C=C\c2ccc(F)cc2)n1-c1ccc(Cl)cc1
screen / no.	49	50	51	52	53	54	55	56
CBX7 AlphaScr	0.79	1.13	0.775	0.851	1.04	1.01	1.01	0.915
CBX7 AlphaScr z-score	-0.829	1.26	-3.27	-0.203	0.945	0.346	0.156	-0.0852

57: Cc1cc(O)c2c(c1)OC(C)(C)C1=C2CC(C)CC1 (centres undefined)
58: O=c1c2ccccc2nc(/C=C\c2ccc(F)cc2)n1-c1ccccc1Cl
59: CCCCOc1ccc(C2SCC(=O)Nc3c2c(C)nn3-c2ccccc2)cc1 (centres undefined)
60: Nc1nonc1-c1noc(-c2nonc2N)n1
61: O=C(CN1C(=O)CN=C(c2ccccc2)c2cc(Cl)ccc21)NCCc1ccccc1
62: Nc1c2c(nc3sc4c(c13)CCCCC4)CCCC2
63: COc1ccc(C2SCC(=O)Nc3c2c(C)nn3-c2ccccc2)cc1OC (centres undefined)
64: Cc1ccc(NC(=O)CN2CC(c3ccccc3)CC2=O)c(C)c1 (centres undefined)
screen / no.	57	58	59	60	61	62	63	64
CBX7 AlphaScr	0.872	0.802	0.939	1.13	1.21	0.923	1.08	0.963
CBX7 AlphaScr z-score	-1.4	-3.08	-0.667	3.76	1.54	-1.02	0.225	-0.849

65: CCOC(=O)C1(c2ccccc2)CCN(CCC(=O)Nc2ccc(F)cc2)CC1
66: O=C(c1csc2c1CCCC2)N1CCC2(CC1)OCCO2
67: Cc1ccccc1-c1nc(CN2C(=O)CN=C(c3ccccc3)c3ccccc32)c(C)o1
68: CC(C)CC1N=C(c2ccccc2)c2ccccc2N(CC(=O)Nc2ccc(N(C)C)cc2)C1=O (centres undefined)
69: O=c1c2ccccc2nc(/C=C\c2ccc(F)cc2)n1-c1cccc(C(F)(F)F)c1
70: Cc1ccccc1-c1nc(CN2C(=O)C(C)N=C(c3ccccc3F)c3cc(Cl)ccc32)c(C)o1 (centres undefined)
71: O=C(c1ccccc1)N(c1ccccn1)C1CN2CCC1CC2 (centres undefined)
72: O=c1c2ccccc2nc(/C=C\c2ccccc2F)n1-c1cccc(C(F)(F)F)c1
73: O=C(c1cc2c(s1)-c1ccccc1OC2)N1CCC2(CC1)OCCO2
74: Cc1cc(NC(=O)CN2CC(c3ccccc3)CC2=O)ccc1Br (centres undefined)
75: CN1C(=O)c2ccccc2Sc2ccc(C(=O)N3CCC4(CC3)OCCO4)cc21
screen / no.	65	66	67	68	69	70	71	72	73	74	75
CBX7 AlphaScr	1.05	1.05	0.978	0.566	0.905	0.874	1.05&1.04	1.02	1.09	1.05	0.928
CBX7 AlphaScr z-score	0.218	1.56	-1.04	-5.75	-0.0947	-2.98	0.912&1	1.13	4.27	1.12	-0.958

This is a subset, so the mix of outcomes need not match the whole.
